Vaccinia mCherry: vaccinia inhibition (mCherry reporter) | hit rate 0.63% among 310,000 | Vaccinia virus mCherry reporter infection, fluorescence; about a quarter of the inactives have no number | Potency, µM (titrated, usually from 36.5 µM), without a hit: top-dose activity change, negative = inhibition, actives largely listed as inhibitors; active = well fitted inhibition curve with a large enough effect; inconclusive = small, poorly fitted or top-dose-only effect; inactive = no such curve, though single readings can be large or run the other way; tested in A549 cells; further: nearly all actives have a fitted effect of over 35% in size; inactives centre near -10
Vaccinia Venus: vaccinia inhibition (Venus reporter) | Vaccinia virus Venus reporter expression, fluorescence | Potency, µM (doses to about 36.5 µM), for inactives: at the highest dose activity change, negative = inhibition, actives largely listed as inhibitors | hit rate 0.46% among 330,000 | AID 720580; active means well fitted inhibition curve with a large enough effect; inconclusive means small, poorly fitted or top-dose-only effect; inactive means no such curve, though single readings can be large or run the other way; tested in A549 cells; further: nearly all actives have a fitted effect of over 30% in size; inactives centre near -10
Numbers without * were called inactive; i = inactive; u = inconclusive; x = no result given; & = joins results of further samples; [ ] = dose if it differs, or a comment. On the % scale 0 is the no-effect control and ±100 the full control effect; potency means the concentration at half of the fitted maximal effect.

SMILES,Vaccinia mCherry,Vaccinia Venus
CSc1c(C#N)c(N)nc2sc(C(=O)c3ccc(Cl)c(Cl)c3)c(N)c12,u,-10%[7.34 µM]
Cc1nc(SC(C)C(=O)c2c(N)n(C)c(=O)n(C)c2=O)c2c(C)c(C)sc2n1 (configuration not stated),-19%,u
Cc1ccc(NC(=O)CCSc2nnnn2-c2ccc3c(c2)OCO3)cc1C,x,-27%
O=C(c1ccc(Cl)cc1)N1CCC(O)(CSc2ccc(Cl)cc2)CC1,x,-29%
O=C(NCC(=O)N1CCN(c2ccccc2O)CC1)c1ccccc1,-15%,-5%
CC(C)(C)NC(=S)NNC(=O)c1ccncc1,-14%,2%
CCOc1ccc(NS(=O)(=O)c2ccc(C(=O)NCc3ccncc3)cc2)cc1,-3%,-23%
COc1ccc(Cl)cc1NC(=O)C1CCN(c2nnc(C)c3c(C)n(-c4ccccc4)nc23)CC1,u,u
OCCCCNCc1ccc(OCc2ccccc2)cc1,-7%,-12%
O=C(O)c1csc(-c2ccc(Cl)cc2)n1,1%,10%
CC(Oc1ccc(Cl)cc1Cl)C(=O)NNC(=O)C(=O)N1CCCC1 (configuration not stated),-23%,-13%
S=C(Nc1ccccc1Cl)NC1CC2CCCC(C1)N2C1CC1 (configuration not stated),0%,-12%
CC(C)OC(=O)CN1CCN(c2ccc(Cl)cc2)CC1,i,-13%
CCOC(=O)N1CCN(C(=O)CSCc2ccc(Cl)cc2)CC1,x,-23%
CC(C)=Cc1c(O)nc2ccccn2c1=O,2%,0%
c1ccc(-c2cc(-c3ccccc3)n3ncnc3n2)cc1,-11%,-13%
Cc1cc(OCC(=O)N(C)C2CCCCC2)ccc1Cl,-8%,-13%
Cc1cc(F)cc(-c2cc(C(=O)NCc3cccc(Cl)c3)[nH]n2)c1,i,-9%
CC(=O)N1c2c(cc(Br)cc2S(=O)(=O)Nc2c(C)n(C)n(-c3ccccc3)c2=O)CC1C (configuration not stated),-5%,-1%
CCOc1ccc(S(=O)(=O)Nc2nc3ccc(OC)cc3s2)cc1,x,12%
COc1cc(OC)cc(C(=O)N[C@H](C(=O)OCn2nnc3ccccc3c2=O)C(C)C)c1,-2%,-12%
CCOc1ccc(OCCNC(=O)c2cc(C3CC3)nc3c2cnn3C(C)C)cc1,i,-10%
COc1cc(OC)nc(NC(=O)CSc2nc3ccccc3o2)n1,-6%,-2%
CCC1CN2CCc3cc(OC)c(OC)cc3C2CC1CC1NCCc2cc(OC)c(OC)cc21 (configuration not stated),2.2µM*,2.5µM*
CCN(CC)c1ccc(S(=O)(=O)N2CCOCC2)cc1NC(=O)c1cc(=O)c2ccccc2o1,11%,-17%

Part of the list above in another layout.
Order of values: Vaccinia mCherry	Vaccinia Venus
> O=C(O)c1csc(-c2ccc(Cl)cc2)n1
  1%	10%
> CC(Oc1ccc(Cl)cc1Cl)C(=O)NNC(=O)C(=O)N1CCCC1 (configuration not stated)
  -23%	-13%
> S=C(Nc1ccccc1Cl)NC1CC2CCCC(C1)N2C1CC1 (configuration not stated)
  0%	-12%
> CC(C)OC(=O)CN1CCN(c2ccc(Cl)cc2)CC1
  i	-13%

Carrying on.
SMILES,Vaccinia mCherry,Vaccinia Venus
CCCNC(=S)N1CCC(C(=O)c2ccc3c(c2)OCCO3)CC1,i,-15%
COc1cc(/C=C2\SC(=Nc3ccccc3)N(Cc3ccco3)C2=O)ccc1OC(C)C(=O)O (configuration not stated),-13%,-8%
CCN(CC(=O)Nc1sc2c(c1C#N)CCC(C)C2)CC(=O)NC1CCS(=O)(=O)C1 (configuration not stated),-6%,-13%
CNS(=O)(=O)c1cn(CC(=O)N2CCN(c3ccccc3F)CC2)cc1S(=O)(=O)NC,-9%,-7%
Cc1[nH]c2ccccc2c1C(=O)C(=O)N1CCN(c2ccccc2Cl)CC1,u,-10%
Nc1nc(N)nc(COc2ccccc2)n1,-25%,-13%
COC(=O)c1n[nH]c2ccccc12,x,-15%
Cc1ccc(-c2nnc(Nc3ccc(O)cc3)c3ccccc23)cc1S(=O)(=O)N1CCN(C)CC1,u,-29%
COc1ccc(/C(O)=C2/C(=O)C(=O)N(c3ncccn3)C2c2ccc(OC)c(OC)c2)cc1 (configuration not stated),x,2%
COc1ccc(S(=O)(=O)NC2CC(=O)N(c3ccccc3)C2)cc1C (configuration not stated),-20%,-9%
Nc1nc(NCCOCCO)nc(NC2CCCCC2)c1[N+](=O)[O-],-13%,-29%
Cc1oc(C(C)(C)C)cc1C(=O)Nc1ccc2c(c1)OCO2,-6%,-23%
C(=N\Nc1nn2cnnc2c2ccccc12)/c1ccco1,-10%,-5%
O=C(/C=C/c1ccccc1)NC(N1CCOCC1)C(Cl)(Cl)Cl (configuration not stated),-8%,-11%
CCN(CC)S(=O)(=O)c1ccc(N2CCOCC2)c(NC(=O)c2cc(=O)[nH]c3ccccc23)c1,5%,0%
Cc1ccc(S(=O)(=O)N2CC[C@H]3[C@@H](C2)C(=O)C[C@@H](c2ccccc2)N3S(=O)(=O)c2ccc(C)cc2)cc1,13%,-12%
Cc1cc(Nc2ccccc2Cl)n2nnnc2n1,2%,5%
CC12CS(=O)(=O)CC1SC(=S)N2Cc1ccccc1 (configuration not stated),-11%,-8%
C/C(=N\NC(=O)c1ccc(NS(=O)(=O)c2cccs2)cc1)c1cccs1,0%,-2%
COc1ccc(S(=O)(=O)N(C)C[C@H]2Oc3ccc(NC(=O)Nc4ccc(C(F)(F)F)cc4)cc3C(=O)N([C@H](C)CO)C[C@@H]2C)cc1,-20%,u
Cc1nnc(SC(C)C(=O)Nc2ncc(Cl)cc2Cl)n1Cc1ccccc1 (configuration not stated),i,-11%
O=c1[nH]cnc2c1ncn2[C@H]1C[C@H](O)[C@@H](CO)O1,28%,20%
CCN(CC)CCNC(=O)c1ccc(NC(=O)c2ccc(C(=O)c3ccccc3)cc2)cc1,-23%,-25%
COc1cc(C)c(CN2CCC(n3nccc3NC(=O)C3CC3)CC2)cc1C,-14%,-9%
Cc1ccc(C(C)C)c(OCCNC(=O)c2cncc(Br)c2)c1,x,-26%

Rewritten as labelled records: entries from further up
Molecule: Cc1nnc(SC(C)C(=O)Nc2ncc(Cl)cc2Cl)n1Cc1ccccc1 (configuration not stated)
  Vaccinia mCherry: i	Vaccinia Venus: -11%
Molecule: CCOc1ccc(OCCNC(=O)c2cc(C3CC3)nc3c2cnn3C(C)C)cc1
  Vaccinia mCherry: i	Vaccinia Venus: -10%

Other compounds follow.
SMILES,Vaccinia mCherry,Vaccinia Venus
CCOC(=O)C1=CCN(S(=O)(=O)c2ccccc2)C1c1ccc(Cl)cc1 (configuration not stated),7%,1%
O=C(NCc1ccccc1F)C(=O)NCC1CCCN1S(=O)(=O)c1cccs1 (configuration not stated),i,-18%
C=CCn1c(=O)c2c(nc3n2CCN3c2cccc(Cl)c2C)n(C)c1=O,-16%,-19%
CC(C)Oc1ccccc1/C=N/NC(=O)C1CC1,i[7.34 µM],-4%[7.34 µM]
CCCNC(=O)c1c(NC(=O)c2ccccc2F)sc2c1CCCCC2,-9%,-3%
Cc1ccccc1CS(=O)(=O)Cc1ccc(C(=O)NCCCN2CCOCC2)o1,-17%,-16%
COc1ccc(OCCNC(=O)C2(C)CCN2Cc2ccc(SC)cc2)cc1 (configuration not stated),23%,10%
CCN1CCN(c2nn3c(=O)c4ccccc4nc3c3ccccc23)CC1,x,-29%
COc1ccc(CCNC(=O)CS(=O)Cc2nc(-c3ccccc3F)oc2C)cc1OC (configuration not stated),-13%&-12%,-1%&-8%
Cc1nc2c(C)cccn2c1C(=O)N/N=C/c1ccccc1[N+](=O)[O-],i,-12%
CC(=O)/C(C#N)=C1\NC(=O)C(Cc2ccccc2)S1 (configuration not stated),u,119%[activator]
CS(=O)(=O)c1ccc(-c2nnn(CC(=O)N3CCCCC3)n2)cc1,-17%,-2%
COC(=O)COc1ccc(C(=O)Cn2c(NCCCO)nc3ccccc32)cc1,-2%,-2%
Cc1ccccc1CN1CCc2cc([N+](=O)[O-])ccc21,-29%,-14%
Cc1ccccc1C(=O)N1CCC(C(N)=O)CC1,i,-5%
COc1ccc(S(=O)(=O)NCc2cccn2Cc2cc(C)ccc2C)cc1OC,-8%,6%
CCN(Cc1cccs1)C(=O)c1cccc(S(=O)(=O)N2CCN(C)CC2)c1,i,-7%
CCC(=O)N(C)CCc1cc2c(c(OC)c1/C=N/Nc1ccc(C(=O)O)cc1)OCO2,-23%,-17%
O=c1[nH]c(-c2ccccn2)cc2ccccc12,10%,-6%
CCN1C[C@@H]2[C@@H]3C(=O)N(C)C(=O)[C@@H]3[C@](C)(C1=O)N2C(=O)c1ccc(Cl)c(Cl)c1,-1%,-8%
CCOc1ccc(NC(=O)C2=C(C)NC(=S)NC2c2ccc(O)c(OC)c2)cc1 (configuration not stated),-11%,2%
O=C(NCc1ccccc1)c1cc2ccc(O)cc2oc1=O,-10%,-3%
COc1ccc(CCNC(=O)CCCCn2c(=O)c3ccccc3n(Cc3ccc(Cl)cc3)c2=O)cc1OC,-13%,-6%
Cc1oc(-c2cccc(Cl)c2)nc1CN1CCCC(C(=O)NCCc2ccc(Cl)cc2)C1 (configuration not stated),u,-22%
COc1ccc(CC(=O)O/N=C(\N)c2ccccn2)cc1OC,i,-6%
COC(=O)c1ccccc1NC(=O)NCc1c(C)nn(C)c1C,-2%,-12%
CC(=O)c1ccc(NC(=S)N(CCCN(C)C)Cc2ccccc2)cc1,i,-10%
CCOC(=O)c1cc(NC(=O)Nc2ccc(Br)cc2)c(C)nc1C,i,-11%
Cc1coc(=N)n1CC(=O)c1ccc(Cl)cc1,-4%,11%
CCN(CC)CCn1c(N)nc2ccccc21,i,2%
O=C(NCc1ccc(F)cc1)c1cc(C2CCCCN2S(=O)(=O)c2ccccc2)on1 (configuration not stated),i,-8%
COc1ccc(C2Nc3ccccc3C(=O)N2c2ccc(F)cc2)cc1COc1ccc(NC(C)=O)cc1 (configuration not stated),-19%,-6%
COc1ccccc1Cn1nnc2c(=O)[nH]c(C3CCN(C(=O)c4ccccc4Cl)CC3)nc21,x,-15%
COc1ccc(CN2CCNC(=O)C2CC(=O)N(C)Cc2nccn2C)cc1OC (configuration not stated),-15%,-17%
CC(C)Cc1nn2c(=O)cc(COC(=O)c3cccc(NC(=O)CCc4ccccc4)c3)nc2s1,i,-12%
COc1ccc(-c2cc(=Nc3ccc(C(=O)O)cc3)c3cc(C)ccc3o2)cc1,i,-12%
COC(=O)Cn1c(=NC(=O)c2ccc(Cl)s2)sc2cc(C)ccc21,-11%,7%
NC(=NC1CCCCC1)c1ccc(Cl)cc1,i,-13%
CC[C@]12c3[nH]c4ccc(OC)cc4c3CCN1C(=O)C(CC(=O)NCCc1ccccn1)C[C@@H]2C(=O)N1CCN(C(=O)c2ccco2)CC1 (some centres not stated),-10%,-8%
C=CC1=C2C=C(C3CC3)N(CCCN(CC)CC)C=C2C(=O)C(C)(OC(=O)c2ccco2)C1=O (configuration not stated),-6%,-6%
Fc1cccc(NCCc2c[nH]c3ccccc23)n1,-29%,u
Cc1ccc(NC(=O)C2(c3ccccc3)CC2(Cl)Cl)cc1C (configuration not stated),i,-10%
Cc1nc(SCC(=O)N2CCOCC2)c2ccsc2n1,x,-19%
COc1ccc(C(=O)CCc2ccccc2)c(O)c1,i,10%
O=c1c2cnn(-c3ccccc3)c2nc(-c2cccs2)n1-c1ccc(Cl)cc1,-4%,0%
CCC/C(=N\O)c1c[nH]c2ccccc12,x,-3%
CC(C)(C)c1cc(CN(CCO)CCO)c(O)c(C(C)(C)C)c1,u,-27%
COc1ccccc1N1C(=O)CC(N(O)c2ccccc2)C1=O (configuration not stated),i,-4%
C[C@H](CO)N1C[C@H](C)[C@@H](CN(C)Cc2ccc(C(=O)O)cc2)Oc2c(cccc2N(C)C)C1=O,i,-4%
O=C(CSc1nc2ccccc2o1)N/N=C/c1ccc(C(=O)O)cc1,u,-11%

(listing goes on)
SMILES,Vaccinia mCherry,Vaccinia Venus
COc1ccccc1NC(=O)c1cc(=O)[nH]c2ccccc12,-11%,-3%
COc1cccc(OC)c1OCCCN1CCOCC1,x,-7%
CCN(Cc1cnn(C)c1)Cc1nc(Cc2ccccc2Cl)no1,-8%,-20%
CCN(CC)c1nc(N)c(C#N)c(CC#N)c1C#N,-1%,-10%
Nc1nc(-c2ccccc2)c(CCCNc2ccccc2)c(=O)[nH]1,-2%,-19%
CC(=O)Nc1cc(S(=O)(=O)Nc2ccccc2C)c(C)cc1C,x,u
COC(=O)C1=CN(c2ccc(F)cc2)C(N)=C(C#N)C1c1ccc(-c2ccccc2)cc1 (configuration not stated),u,-29%
O=C(Nc1ccc2oc(-c3cc(Br)ccc3Cl)nc2c1)c1cc2ccccc2o1,-14%[7.34 µM],-10%[7.34 µM]
COCCCn1c(SCC(=O)Nc2nnc(C)s2)nnc1-c1ccoc1C,-11%,-6%
CC(=O)Nc1ccc(SCC(=O)O)cc1,-22%,-17%
CC1CCc2c(C(=O)Nc3ccccn3)csc2C1 (configuration not stated),-7%,-11%
COc1cccc(-c2nnc(-c3ccccc3NC(=O)c3ccc(F)cc3F)o2)c1,-13%,-15%
O=S(=O)(c1ccc2ccccc2c1)n1cnc2ccccc21,x,-19%

From PubChem BioAssay
